# Screens as filed in PubChem BioAssay.
# UUG fidelity = alters start codon recognition fidelity in yeast | AID 602363 | S. cerevisiae UUG-firefly luciferase reporter, luminescence/redox ratio | 350,000 tested, 0.13% active | activity score, % at 18.7 µM;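 active = replicate mean at a twofold rise or more, about +100% in these data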;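 note: firefly luciferase made from a UUG start codon reports start codon fidelity; reporter light over untreated wells divided by growth signal over untreated wells; some hits fall short of that in this replicate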
# HIV Env fusion = inhibitors of HIV Env-mediated cell fusion; HeLa-JRFL Env/CEM21 cell fusion, luciferase; inhibition, % at 12.3 µM; 360,000 tested, 1.1% active; AID 651610;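 active = mean replicate inhibition score of at least 50 and every replicate individually at or above 50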;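 note: 0% = plate neutral controls and 100% = maraviroc near 300 nM; one replicate is shown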
# An asterisk follows results filed as active; [ ] = remark or other dose.
SMILES,UUG fidelity,HIV Env fusion
C[C@H]1CN([C@@H](C)CO)C(=O)c2cc(C#Cc3ccccc3F)cnc2O[C@@H]1CN(C)C(=O)C1CCC1,4,-7[16.7 µM]
COc1ccc(NC(=O)Nc2ccc3c(c2)C(=O)N([C@H](C)CO)C[C@@H](C)[C@H](CN(C)Cc2ccc(C(=O)O)cc2)OCCCC[C@@H](C)O3)cc1,6,-2[16.7 µM]
C[C@@H]1CN([C@@H](C)CO)C(=O)Cc2cc(NC(=O)C3CCCCC3)ccc2O[C@@H]1CN(C)CC1CC1,-1,4[16.7 µM]
COCCNC(=O)C[C@H]1C[C@H]2c3cc(NS(C)(=O)=O)ccc3O[C@H]2[C@@H](CO)O1,5,2[16.7 µM]
COc1cccc(CNC(=O)C[C@@H]2C=C[C@H](NC(=O)C3CC3)[C@H](CO)O2)c1,-3,-2[16.7 µM]
CO[C@H]1CN(C)C(=O)c2cc(NC(C)=O)ccc2OC[C@H](C)N(Cc2cccc(F)c2)C[C@H]1C,7,8[16.7 µM]
COc1ccc(S(=O)(=O)Nc2cccc3c2O[C@@H](CN(C)S(=O)(=O)c2ccc(C)cc2)[C@H](C)CN([C@@H](C)CO)C3=O)cc1,-9,-37[16.7 µM]
Cc1noc(C)c1NC(=O)Nc1ccc2c(c1)CC(=O)N([C@H](C)CO)C[C@H](C)[C@@H](CN(C)C(=O)Nc1c(C)noc1C)O2,5,9[16.7 µM]
CCNC(=O)Nc1ccc2c(c1)C(=O)N(C)[C@@H]1CC[C@@H](CC(=O)NCc3ccccc3F)O[C@H]1CO2,-4,13[16.7 µM]
CN1CCN(C(=O)C[C@H]2CC[C@H](NC(=O)Cc3ccccn3)[C@@H](CO)O2)CC1,-11,-12[16.7 µM]
C[C@@H]1CCCCO[C@@H](CN(C)C(=O)c2ccncc2)[C@H](C)CN([C@H](C)CO)C(=O)c2cc(NC(=O)C3CCCCC3)ccc2O1,11,-15[16.7 µM]
COc1ccc(S(=O)(=O)N(C)C[C@H]2OCCCC[C@@H](C)Oc3ccc(NC(=O)c4ccccc4)cc3C(=O)N([C@@H](C)CO)C[C@H]2C)cc1,-16,-5[16.7 µM]
Cc1noc(C)c1NC(=O)N(C)C[C@@H]1Oc2ccc(NC(=O)Nc3ccccc3)cc2C(=O)N([C@H](C)CO)C[C@H]1C,-7,4[16.7 µM]
COc1ccc(S(=O)(=O)Nc2ccc3c(c2)CC(=O)N([C@@H](C)CO)C[C@@H](C)[C@@H](CN(C)S(=O)(=O)c2ccccc2)O3)cc1,-11,8[16.7 µM]
CNC[C@@H]1Oc2c(NC(=O)c3ccc(-c4nccs4)cc3)cccc2C(=O)N([C@@H](C)CO)C[C@H]1C,10,4[16.7 µM]
C[C@H](CO)N1C[C@H](C)[C@H](CN(C)Cc2cccc(C(F)(F)F)c2)Oc2ncc(Br)cc2C1=O,1,5[16.7 µM]
CCCN(C)C[C@H]1Oc2ncc(-c3cccnc3)cc2C(=O)N([C@@H](C)CO)C[C@@H]1C,-6,-11[16.7 µM]
CCS(=O)(=O)N[C@H]1CC[C@@H](CC(=O)Nc2ccc(-c3ccccc3)cc2)O[C@@H]1CO,-9,33[16.7 µM]
COCC#Cc1ccc2c(c1)O[C@H](CN(C)CC1CCOCC1)[C@H](C)CN([C@H](C)CO)S2(=O)=O,1,-8[16.7 µM]
O=C(C[C@H]1C=C[C@@H](NC(=O)c2cnccn2)[C@H](CO)O1)NCc1ccccc1F,-14,12[16.7 µM]
CNC[C@@H]1Oc2ccc(NS(C)(=O)=O)cc2CC(=O)N([C@H](C)CO)C[C@H]1C,0,65*[16.7 µM]
C[C@H](CO)N1C[C@H](C)[C@@H](CN(C)S(=O)(=O)c2ccccc2)OCCCC[C@H](C)Oc2ccc(NC(=O)Nc3ccc4c(c3)OCO4)cc2C1=O,-15,-14[16.7 µM]
O=C(C[C@@H]1C=C[C@@H](NC(=O)c2cccc(F)c2)[C@@H](CO)O1)NCc1ccccc1,-6,14[16.7 µM]
COc1ccc(S(=O)(=O)Nc2ccc3c(c2)C(=O)N([C@@H](C)CO)C[C@@H](C)[C@@H](CN(C)S(C)(=O)=O)O3)cc1,-7,3[16.7 µM]
COCC#Cc1ccc2c(c1)O[C@@H](CN(C)Cc1ccccc1F)[C@H](C)CN([C@H](C)CO)S2(=O)=O,-6,20[16.7 µM]
C[C@H]1CCCCO[C@@H](CN(C)C(=O)Cc2ccccc2)[C@@H](C)CN([C@@H](C)CO)C(=O)c2cc(NC(=O)c3ccccc3)ccc2O1,0,-43[16.7 µM]
C[C@@H]1CN([C@H](C)CO)C(=O)c2cc(NS(C)(=O)=O)ccc2O[C@@H](C)CCCCO[C@@H]1CN(C)Cc1ccccc1,-2,-3[16.7 µM]
CN(C)CC(=O)Nc1ccc2c(c1)[C@@H]1C[C@H](CC(=O)N3CCOCC3)O[C@H](CO)[C@@H]1O2,-12,-8[16.7 µM]
Cc1ccc(S(=O)(=O)N(C)C[C@H]2Oc3ccc(NC(=O)Nc4c(C)noc4C)cc3CC(=O)N([C@H](C)CO)C[C@@H]2C)cc1,3,9[16.7 µM]
Cc1noc(C)c1S(=O)(=O)N(C)C[C@H]1OCCCC[C@H](C)Oc2ccc(NC(=O)C3CCCCC3)cc2C(=O)N([C@H](C)CO)C[C@H]1C,6,-16[16.7 µM]
COCC(=O)Nc1ccc2c(c1)C(=O)N(C)[C@H]1CC[C@H](CC(=O)O)O[C@H]1CO2,9,-19[16.7 µM]
CC(C)NC(=O)N[C@H]1CC[C@@H](CCn2cc(-c3ccc(F)cc3)nn2)O[C@@H]1CO,6,5[16.7 µM]
CC(=O)Nc1ccc2c(c1)C(=O)N(C)[C@H]1CC[C@@H](CC(=O)NCc3ccc(F)cc3)O[C@H]1CO2,3,14[16.7 µM]
CN1CCN(C(=O)C2=C[C@H](c3ccccc3)C[C@H](OCCCCO)O2)CC1,9,-5[16.7 µM]
COc1ccc(C#Cc2ccc3c(c2)O[C@@H](CN(C)C(C)=O)[C@H](C)CN([C@H](C)CO)S3(=O)=O)cc1,-8,29[16.7 µM]
N#C[C@H]1[C@H](c2ccc(-c3cccc(F)c3)cc2)[C@H](CO)N1C(=O)NC1CCCC1,-10,48[16.7 µM]
CNC[C@H]1Oc2cc(C#Cc3ccccn3)ccc2S(=O)(=O)N([C@H](C)CO)C[C@H]1C,-6,-25[16.7 µM]
CO[C@@H]1CN(C)C(=O)c2ccc(NS(C)(=O)=O)cc2OC[C@H](C)N(Cc2cncnc2)C[C@H]1C,16,3[16.7 µM]
C=CC[C@@H](OC(=O)Nc1ccc(SC)cc1)c1ccc(OCCO)cc1,-4,-16[16.7 µM]
CCCN(C)C[C@H]1Oc2cc(C#CC3CCCCC3)ccc2S(=O)(=O)N([C@@H](C)CO)C[C@@H]1C,8,29[16.7 µM]
CC(=O)Nc1ccc2c(c1)C(=O)N(C)[C@H]1CC[C@H](CC(=O)NCc3ccc4c(c3)OCO4)O[C@@H]1CO2,-3,-12[16.7 µM]
C[C@H]1CN([C@@H](C)CO)C(=O)c2cc(/C=C/c3ccccc3)cnc2O[C@H]1CN(C)C(=O)c1cccnc1,-12,-1[16.7 µM]
CC(C)C#Cc1cnc2c(c1)C(=O)N([C@H](C)CO)C[C@@H](C)[C@@H](CN(C)Cc1ccccn1)O2,-13,9[16.7 µM]
C[C@@H]1CN([C@@H](C)CO)C(=O)c2cc(NS(=O)(=O)c3cccs3)ccc2O[C@@H](C)CCCCO[C@H]1CN(C)Cc1ccncc1,-7,9[16.7 µM]
Cc1cc(C(=O)Nc2cccc3c2O[C@H](CN(C)Cc2ccc4c(c2)OCO4)[C@H](C)CN([C@@H](C)CO)C3=O)n(C)n1,-2,8[16.7 µM]
COc1ccc(-c2cnc3c(c2)C(=O)N([C@H](C)CO)C[C@H](C)[C@H](CN(C)C(=O)C2CCOCC2)O3)cc1,9,-31[16.7 µM]
C[C@@H]1CCCCO[C@H](CN(C)C(=O)C2CCCCC2)[C@H](C)CN([C@@H](C)CO)C(=O)c2cc(NC(=O)C3CCCCC3)ccc2O1,7,-4[16.7 µM]
Cc1noc(C)c1S(=O)(=O)Nc1ccc2c(c1)C(=O)N([C@H](C)CO)C[C@@H](C)[C@@H](CN(C)S(=O)(=O)c1ccccc1)OCCCC[C@H](C)O2,7,-20[16.7 µM]

# Fetched by structure from the entries so far:
SMILES,UUG fidelity,HIV Env fusion
CC(C)C#Cc1cnc2c(c1)C(=O)N([C@H](C)CO)C[C@@H](C)[C@@H](CN(C)Cc1ccccn1)O2,-13,9[16.7 µM]
C[C@H]1CN([C@@H](C)CO)C(=O)c2cc(/C=C/c3ccccc3)cnc2O[C@H]1CN(C)C(=O)c1cccnc1,-12,-1[16.7 µM]
CNC[C@H]1Oc2cc(C#Cc3ccccn3)ccc2S(=O)(=O)N([C@H](C)CO)C[C@H]1C,-6,-25[16.7 µM]
COc1ccc(-c2cnc3c(c2)C(=O)N([C@H](C)CO)C[C@H](C)[C@H](CN(C)C(=O)C2CCOCC2)O3)cc1,9,-31[16.7 µM]
C[C@@H]1CCCCO[C@H](CN(C)C(=O)C2CCCCC2)[C@H](C)CN([C@@H](C)CO)C(=O)c2cc(NC(=O)C3CCCCC3)ccc2O1,7,-4[16.7 µM]

# The list goes on.
SMILES,UUG fidelity,HIV Env fusion
COc1cccc(S(=O)(=O)Nc2ccc3c(c2)[C@H]2C[C@@H](CC(=O)NCC(F)(F)F)O[C@@H](CO)[C@H]2O3)c1,0,-1[16.7 µM]
C[C@H]1CN([C@@H](C)CO)C(=O)c2cc(-c3ccc(F)cc3)cnc2O[C@H]1CN(C)S(C)(=O)=O,3,-7[16.7 µM]
CC(C)NC(=O)N(C)C[C@@H]1Oc2ccc(NC(=O)C3CC3)cc2CC(=O)N([C@H](C)CO)C[C@H]1C,-30,62*[16.7 µM]
Cc1ccc(S(=O)(=O)N(C)C[C@H]2OCCCC[C@@H](C)Oc3ccc(NS(=O)(=O)c4ccccc4)cc3C(=O)N([C@@H](C)CO)C[C@@H]2C)cc1,32,-31[16.7 µM]
COc1ccc(S(=O)(=O)Nc2cccc3c2O[C@@H](CN(C)C(=O)Nc2ccc4c(c2)OCO4)[C@H](C)CN([C@H](C)CO)C3=O)cc1,9,-8[16.7 µM]
C[C@@H]1CN([C@@H](C)CO)C(=O)c2cc(-c3cccc(C#N)c3)cnc2O[C@H]1CN(C)C(=O)C1CCCCC1,0,-4[16.7 µM]
C[C@@H]1CN([C@H](C)CO)C(=O)c2cc(Br)cnc2O[C@H]1CN(C)C(=O)NC1CCCC1,30,-15[16.7 µM]
C[C@@H]1CN([C@H](C)CO)S(=O)(=O)c2ccc(C#CC3CC3)cc2O[C@H]1CN(C)Cc1ccccn1,-16,34[16.7 µM]
CCS(=O)(=O)Nc1ccc2c(c1)C(=O)N(C)C[C@@H](OC)[C@@H](C)CN(C)[C@@H](C)CO2,3,3[16.7 µM]
CN(C)C(=O)C[C@H]1CC[C@@H]2[C@@H](COc3ccc(NC(=O)c4cnccn4)cc3C(=O)N2C)O1,-1,-11[16.7 µM]
COc1cccc(S(=O)(=O)N(C)C[C@H]2Oc3cc(C4=CCCC4)ccc3S(=O)(=O)N([C@@H](C)CO)C[C@H]2C)c1,-12,110*[16.7 µM]
Cc1ccc(S(=O)(=O)N[C@H]2C=C[C@H](CC(=O)NCc3ccc(Cl)c(Cl)c3)O[C@H]2CO)cc1,-11,-10[16.7 µM]
C[C@@H]1CN([C@@H](C)CO)C(=O)c2cc(NS(=O)(=O)c3ccccc3)ccc2O[C@@H](C)CCCCO[C@H]1CN(C)C(=O)Cc1ccccc1,4,-43[16.7 µM]
C[C@H](NC(=O)C[C@@H]1CC[C@H]2[C@@H](COC[C@@H](O)CN2Cc2cc(F)ccc2F)O1)c1ccccc1,9,15[16.7 µM]
CC(C)NC(=O)N(C)C[C@@H]1OCCCC[C@H](C)Oc2ccc(NS(=O)(=O)c3ccc(Cl)cc3)cc2C(=O)N([C@@H](C)CO)C[C@H]1C,0,-251[16.7 µM]
Cc1noc(C)c1S(=O)(=O)Nc1ccc2c(c1)C(=O)N([C@@H](C)CO)C[C@@H](C)[C@H](CN(C)Cc1ccc(C(F)(F)F)cc1)O2,-2,-2[16.7 µM]
COc1ccc(S(=O)(=O)N2CCN(Cc3ccc(OCCO)cc3)CC2)cc1,-4,1[16.7 µM]
COc1ccc(-c2cnc3c(c2)C(=O)N([C@H](C)CO)C[C@H](C)[C@H](CN(C)C(=O)NC(C)C)O3)cc1,-1,-14[16.7 µM]
CNC[C@H]1Oc2ncc(-c3ccc(C)cc3)cc2C(=O)N([C@H](C)CO)C[C@H]1C,1,6[16.7 µM]
COc1ccc(CN(C)C[C@@H]2OCCCC[C@H](C)Oc3ccc(NC(=O)Nc4ccc(OC)cc4)cc3C(=O)N([C@@H](C)CO)C[C@H]2C)cc1,14,-17[16.7 µM]
COc1ccc(NC(=O)Nc2ccc3c(c2)[C@H]2C[C@@H](CC(=O)NC4CCCC4)O[C@@H](CO)[C@H]2O3)cc1,-20,-1[16.7 µM]

# Ordered by the number under UUG fidelity (smallest number first): 3 from the list above
SMILES,UUG fidelity,HIV Env fusion
CC(C)NC(=O)N(C)C[C@@H]1OCCCC[C@H](C)Oc2ccc(NS(=O)(=O)c3ccc(Cl)cc3)cc2C(=O)N([C@@H](C)CO)C[C@H]1C,0,-251[16.7 µM]
C[C@@H]1CN([C@@H](C)CO)C(=O)c2cc(NS(=O)(=O)c3ccccc3)ccc2O[C@@H](C)CCCCO[C@H]1CN(C)C(=O)Cc1ccccc1,4,-43[16.7 µM]
COc1ccc(CN(C)C[C@@H]2OCCCC[C@H](C)Oc3ccc(NC(=O)Nc4ccc(OC)cc4)cc3C(=O)N([C@@H](C)CO)C[C@H]2C)cc1,14,-17[16.7 µM]

# Some of the compounds tested (hit frequency here may not be typical).
